StopGo reporter – FMDV 2A StopGo reporter, luciferase signal; hit rate 1.2% among 410,000; human cells with a luciferase reporter of 2A StopGo recoding; control for the full effect not named in the record; AID 1159524; Potency, µM (top dose mostly 57.9 µM), for inactives: top-dose signal change, negative = less light; active = well fitted falling curve with a large enough effect; inconclusive = small, poorly fitted or top-dose-only effect; inactive = no such curve, though single readings can be large or run the other way; tested in HEK293T cells; also: nearly all actives have a fitted effect of over 45% in size; luciferase light after 4 h
Cruzain inh Det – inhibitors of Trypanosoma cruzi cruzain with detergent; P25779; purified cruzain, Z-FR-AMC fluorescence, 0.01% Triton; Potency, µM, for inactives: max response, negative = inhibition, most hits filed as inhibitors; hit rate 0.43% among 200,000; AID 1478;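 also: plate controls were neutral wells for no effect and buffer without enzyme for full effect; nearly all actives have a fitted effect of over 40% in size; top concentration of the series not given in the record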
Target sequence (P25779 123-467 limits assumed): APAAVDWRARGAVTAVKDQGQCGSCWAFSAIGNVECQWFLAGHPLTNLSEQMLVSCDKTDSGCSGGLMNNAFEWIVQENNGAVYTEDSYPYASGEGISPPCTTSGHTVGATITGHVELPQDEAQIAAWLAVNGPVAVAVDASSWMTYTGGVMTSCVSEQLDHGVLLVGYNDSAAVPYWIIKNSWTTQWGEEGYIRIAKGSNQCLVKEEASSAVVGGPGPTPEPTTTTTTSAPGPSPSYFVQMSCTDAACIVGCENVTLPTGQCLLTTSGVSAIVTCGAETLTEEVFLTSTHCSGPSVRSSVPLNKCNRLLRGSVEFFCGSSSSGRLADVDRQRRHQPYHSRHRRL
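Read-out: AMC fluorescence (360 nm excitation, 450 nm emission), four reads over 2 min, first-to-third difference used. Conditions: cruzain 1.5 nM, Z-FR-AMC 2 uM, pH 5.5 acetate, 5 mM DTT, 0.01% Triton X-100.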
Cruzain noTriton – cruzain (T. cruzi) inhibition without detergent; P25779; purified cruzain, Z-FR-AMC fluorescence, no detergent; Potency, µM, for the others: max response, negative = inhibition, actives largely listed as inhibitors; hit rate 2.3% among 200,000; AID 1476;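 also: plate controls were enzyme without inhibitor for no effect and buffer without enzyme for full effect; nearly all actives have a fitted effect of over 40% in size; top concentration of the series not given in the record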
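Purified cruzain at 1.5 nM, pre-incubated 15 min with compound at room temperature in 100 mM sodium acetate pH 5.5, 5 mM DTT, 0.00005% Triton X-100. Reaction started with 2 uM Z-FR-AMC; AMC fluorescence increase over 60 s gives rate.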
An asterisk follows results filed as active; ? = inconclusive; nt = not tested or not shown; [ ] = another dose, or the depositor's remark. Unless noted, calls follow the shape of the dose curve; as a rule, active = well fitted curve in the direction sought with a large enough effect; inconclusive = small, poorly fitted or top-dose-only effect, or another doubt; inactive = no such curve, though single readings can be large; an effect the other way counts as inactive or inconclusive. Unless noted, % is scaled to controls: 0 for no effect and ±100 for the full control effect; potency is read from the fitted curve at half-maximal effect. This is a subset; the hit share may differ from the screen's.

Start of the listing, in advance (two entries):
SMILES	StopGo reporter	Cruzain inh Det	Cruzain noTriton
Cc1cnc(SCCN2CCOCC2)nc1C1CCCN(C(=O)c2cccc3c(C)c(C)[nH]c23)C1 (stereo not drawn)	-19%	nt	nt
CO[C@H]1[C@H](NC(=O)c2ccsc2)c2ccccc2C12CCN(Cc1c(O)ccc3ccccc13)CC2	13%	nt	nt

The listing (from the top)
SMILES	StopGo reporter	Cruzain inh Det	Cruzain noTriton
Cc1cnc(SCCN2CCOCC2)nc1C1CCCN(C(=O)c2cccc3c(C)c(C)[nH]c23)C1 (stereo not drawn)	-19%	nt	nt
CO[C@H]1[C@H](NC(=O)c2ccsc2)c2ccccc2C12CCN(Cc1c(O)ccc3ccccc13)CC2	13%	nt	nt
NCCn1oc(=O)[nH]c1=O	0%	nt	nt
COc1cc2nccc(Oc3ccc(NC(=O)Nc4ccc(F)cc4F)c(F)c3)c2cc1OC	-7%	nt	nt
COc1ccc2c(c1)-c1nc(-n3ncc(C(=O)N(C)C(C)c4ccon4)c3C3CC3)ncc1CC2 (stereo not drawn)	-75%	nt	nt
OC1(c2cccnc2)CCN(Cc2ccc3c(c2)CN(Cc2ccsc2)CCO3)CC1	-11%	nt	nt
CN(CC#CCN1CCCC1)C(=O)c1cccc(Cl)c1	-8%	nt	nt
Cc1ncc2c(c1CNC(=O)c1ccc3c(c1)OCO3)CCN(C(=O)c1csc3c1CCCC3)C2	1%	nt	nt
COc1cc(-c2cc(C)c3c(OC)ccc(OC)c3n2)cc2c1OCCN(Cc1cn(C)nc1C)C2	-3%	nt	nt
Cc1cnc(SCC2CCCO2)nc1C1CCCN(Cc2cc3c(cc2Cl)OCO3)C1 (stereo not drawn)	-14%	nt	nt
COCc1ccc(CN2Cc3cc(Cl)ccc3OC(C)C2)o1 (stereo not drawn)	-7%	nt	nt
CC(=O)c1ccccc1-c1ccc2c(c1)CC(CNC(=O)c1cc(C)on1)O2 (stereo not drawn)	-26%	nt	nt
Cc1ccccc1-c1cccc(CN2CCc3nnc(C(C)NC(=O)c4cccnc4)n3CC2)c1 (stereo not drawn)	-5%	nt	nt
COCC(=O)Nc1cc(C(=O)N2CCc3sccc3C2)c2c(c1)nc(-c1ccncc1)n2C	1%	nt	nt
CN(Cc1ccon1)C(=O)c1cnn(-c2ncc3c(n2)-c2ccccc2CCC3)c1C1CC1	20%	nt	nt
COc1ccc(-c2nc3cc(C)ccc3cc2CN(C(=O)c2csc(C)n2)C2CC2)cc1OC	-8%	nt	nt
Cc1c(C(=O)N2CCCC2)sc2ncnc(NCCCN3CCOCC3)c12	-5%	nt	nt
COC(=O)C1CCN(Cc2ccc3c(c2)CN(C(=O)c2cc(C)oc2C)CCO3)CC1	-7%	nt	nt
Cc1cnc(C)c(-c2cccc3c2OC(CNC(=O)CN2C(=O)c4ccccc4C2=O)C3)n1 (stereo not drawn)	1%	nt	nt
COc1cccc(CN2C(=O)NC(C)(C3CCN(Cc4cnn(C)c4C)CC3)C2=O)c1OC (stereo not drawn)	?	nt	nt
COc1ccccc1CN1C(=O)[C@H]2Cc3c([nH]c4ccccc34)C(C)(C)N2C1=O	-6%	nt	nt
Oc1ccc(-c2c(-c3ccccc3)nn3c(C(F)(F)F)cc(C(F)(F)F)nc23)cc1	-10%	nt	nt
COC(=O)c1cc(CNC(=O)c2cnsn2)cc(NC(=O)c2ccccc2OC)c1	-4%	nt	nt
CCC1CN(CCNC(=O)c2ccc(C#CC(C)(C)O)cc2)Cc2cc(OC)ccc2O1 (stereo not drawn)	12%	nt	nt
COc1ccc(CN2C(=O)[C@@H]3Cc4c([nH]c5ccccc45)C(C)(C)N3C2=O)cc1	0%	nt	nt
Going on with the list:
SMILES	StopGo reporter	Cruzain inh Det	Cruzain noTriton
O=C(O)CCC/C=C\C[C@@H]1C(/C=C/[C@@H](O)COc2cccc(C(F)(F)F)c2)[C@@H](O)C[C@@H]1O (stereo partly drawn)	-17%[6.7 µM]	nt	nt
COCC(=O)Nc1cc(C(=O)N2CC3(C)CC2CC(C)(C)C3)c2c(c1)nc(-c1ccncc1)n2C (stereo not drawn)	0%	nt	nt
O=C(O)c1ccc2c(c1)OCO2	-6%	1.0%	-6%
COC1=CC2C3Cc4ccc(OC)c(O)c4[C@]2(CCN3C)CC1=O (stereo partly drawn)	-1%	-0.7%	8%
COc1ccc2c(c1)CCC1C2CC[C@@]2(C)C(O)CCC12 (stereo partly drawn)	11%	-1.0%	-6%
O=C(c1csnn1)N1CCC2(CC1)CCN(c1ccccc1)CC2	-9%	2.0%	-7%
Cn1c(=O)c(-c2ccccc2)nc2cncnc21	3%	-6.3%	-10%
C1CNCCN1	-5%	5.3%	-6%
Cc1cnc(CNc2cc(-c3ccccc3Cl)ncn2)cn1	16%	-0.4%	1%
COc1cccc(Cn2c(=O)c(-c3ccc(Cl)cc3)nc3cnc(N4CCOCC4)nc32)c1	-7%	3.5%	2%
O=S(=O)(c1ccccc1)N1CCC[C@@]2(CCN(Cc3ccccc3)C2)C1	-8%	1.0%	-8%
CCN(CC)CC1CCN(c2ncc3ncnc(Nc4ccc(F)c(Cl)c4)c3n2)CC1	?	-1.4%	-3%
COCCn1c(=O)c(C)nc2cnc(N3CCNCC3)nc21	-21%	-11%	2%
Cc1nc2cnc(Nc3ccccc3)nc2n(CCC#N)c1=O	-5%	3.2%	2%
Clc1ccc2ncnc(NCc3ccc4c(c3)OCO4)c2c1	?	-0.4%	-4%
C[C@H]1OC(=O)CC[C@@H]2[C@]1(C)CCC1[C@@]2(C)CC[C@@]2(C)C3CC(C)(C)CC[C@]3(CO)CC[C@]12C (stereo partly drawn)	-13%	2.0%	-12%
O=c1c(-c2ccccc2)nc2cnc(N3CCNCC3)nc2n1-c1ccccc1	3%	-12%	-1%
COc1c(-c2coc3cc4c(cc3c2=O)CC(O)C(C)(C)O4)ccc2c1C=CC(C)(C)O2 (stereo not drawn)	2.2µM*	1.1%	?
COCCn1c(=O)c(-c2ccccc2)nc2cnc(OC)nc21	-16%	-3.6%	-11%
OC/C=C/c1ccc(O)c(O)c1	-10%	0.3%	-4%
O=C(O)CCC1NCC2CC1CN1CCCCC21 (stereo not drawn)	-11%	-4.0%	-5%
COc1ccc(/C=C/c2cc(O)cc(O)c2)cc1	-5%	3.0%	-14%
COc1cccc(-c2nc(NCc3ccc(OC)cc3OC)c3ccccc3n2)c1	5%	-3.1%	-10%
COc1ccc(CNc2ncncc2-c2cccc(NS(C)(=O)=O)c2)c(OC)c1	?	2.1%	1%
COc1cccc(-c2nc(Nc3ccncc3)c3ccccc3n2)c1	-29%	-8.7%	3%

Some values from the results shown.
Value of COC1=CC2C3Cc4ccc(OC)c(O)c4[C@]2(CCN3C)CC1=O (stereo partly drawn) under Cruzain inh Det: -0.7%
Value of COc1cccc(-c2nc(Nc3ccncc3)c3ccccc3n2)c1 under StopGo reporter: -29%
Value of COCCn1c(=O)c(C)nc2cnc(N3CCNCC3)nc21 under Cruzain inh Det: -11%

Going on with the list.
SMILES	StopGo reporter	Cruzain inh Det	Cruzain noTriton
CN(C)c1ccc(-c2nc(N(C)Cc3ccco3)c3ccccc3n2)cc1	30%	-13%	-12%
CN(C)C(=O)c1ccc(-c2nc(NC3CCNCC3)c3ccccc3n2)cc1	-6%	-6.6%	0%
COCCNc1nc(-c2ccccc2Cl)nc2ccccc12	-19%	-1.9%	7%
N#Cc1cccc(-c2cc(NCc3cccnc3)ncn2)c1	12%	-0.7%	5%
O=C(CCCCCCCCCCCCC1CCCC1)Nc1ccc(S(=O)(=O)c2ccc(NC(=O)CCCCCCCCCCCCC3CCCC3)cc2)cc1	-3%	2.3%	-7%
Cn1cccc1C(=O)N1CCC2(CCCN(Cc3ccncc3)C2)CC1	-12%	0.3%	1%
COc1ccc(Oc2ncc3ncc(=O)n(Cc4ccc(F)cc4)c3n2)cc1	-21%	-4.8%	?
O=C(Nc1ccncc1)c1cc([N+](=O)[O-])ccc1Cl	-22%	-2.3%	3%
Cc1cccc(CNc2ccnc(-c3ccc(C(=O)N(C)C)cc3)n2)c1	-19%	-1.6%	6%
CCNc1ncc2ncc(=O)n(C3CC3)c2n1	-1%	2.3%	-1%
COc1cccc(Cn2c(=O)c(-c3ccccc3)nc3cnc(OC)nc32)c1	-2%	0.7%	-5%
CC(=O)Nc1ccc(S(=O)(=O)Nc2ccc([N+](=O)[O-])cc2)cc1	68%[activator]	-7.7%	-16%
COc1ccc(Oc2ncc3nc(CCc4ccccc4)c(=O)n(CCC#N)c3n2)cc1	-20%	-0.9%	-2%
c1cnc(N2CCCC3(CCNCC3)C2)nc1	-11%	1.6%	0%
CS(=O)(=O)N1CCC[C@@]2(CCN(c3ccncc3)C2)C1	5%	-0.4%	-4%
C[C@H](O)CO[C@H]1[C@H]2O[C@H]3[C@H](O)[C@@H](O)[C@@H](O[C@H]4[C@H](O)[C@@H](O)[C@@H](O[C@H]5[C@H](O)[C@@H](O)[C@@H](O[C@H]6[C@H](O)[C@@H](OC[C@H](C)O)[C@@H](O[C@H]7[C@H](O)[C@@H](OC[C@H](C)O)[C@@H](O[C@H]8[C@H](O)[C@@H](O)[C@@H](O[C@@H]([C@@H]1O)[C@@H](CO)O2)O[C@@H]8CO)O[C@@H]7CO)O[C@@H]6CO)O[C@@H]5CO)O[C@@H]4CO)O[C@@H]3CO	-7%	6.4%	-2%
COc1cc(NCc2ccc3nc(N)nc(N)c3c2C)cc(OC)c1OC	?	-3.1%	-17%
CCN1C[C@@]2(C)CC[C@@H](OC)[C@@]34C2C(O)[C@@]2(OCO[C@]25CC(OC)C2C[C@@]3(O)C5C2O)C14 (stereo partly drawn)	7%	3.9%	3%
NC1=NCCN1CC(=O)O	-12%	-0.1%	1%
C/C(=C\[C@@H](N)C(=O)O)CP(=O)(O)O	0%	-1.2%	-4%
CNC1C(O)[C@@H]2OC(O[C@@H]3C(O)C(O)C(N)C[C@H]3N)C(N)C[C@H]2O[C@H]1O[C@@H]1OC(CO)C(N)C(O)C1O (stereo partly drawn)	-11%	-1.1%	2%
CS(=O)(=O)Nc1ccc([N+](=O)[O-])cc1OC1CCCCC1	-4%[97.4 µM]	-3.6%	-5%
CNc1nc(-c2ccccc2CN(C)C)nc2ccccc12	-7%	-5.3%	3%
C=CC(C)(C)c1c2c(c(O)c3c(=O)c4ccc(O)c(O)c4oc13)C=CC(C)(C)O2	0%	3.1%	?
O=c1c(-c2ccc(F)cc2)nc2cnc(Oc3ccccc3)nc2n1C[C@H]1CCCO1	-3%	-3.1%	-3%

Retrieved by structure from the list above, four records:
SMILES	StopGo reporter	Cruzain inh Det	Cruzain noTriton
CCNc1ncc2ncc(=O)n(C3CC3)c2n1	-1%	2.3%	-1%
CNc1nc(-c2ccccc2CN(C)C)nc2ccccc12	-7%	-5.3%	3%
c1cnc(N2CCCC3(CCNCC3)C2)nc1	-11%	1.6%	0%
Cn1cccc1C(=O)N1CCC2(CCCN(Cc3ccncc3)C2)CC1	-12%	0.3%	1%

Later entries.
SMILES	StopGo reporter	Cruzain inh Det	Cruzain noTriton
COc1ccc(CNc2nc(-c3ccc(N(C)C)cc3)nc3ccccc23)c(OC)c1	-4%	-11%	?
c1cc2c(cc1C1OC[C@@H]3C(c4ccc5c(c4)OCO5)OCC13)OCO2 (stereo partly drawn)	-10%	-1.5%	-6%
COC(=O)N1CCC[C@@]2(CCN(c3ccccn3)C2)C1	6%	-3.0%	5%
c1ccc(N2CCC3(CCNCC3)CC2)cc1	-18%	2.4%	-12%
CNc1nc(-c2cccnc2)nc2ccccc12	-7%	2.1%	-5%
CS(=O)(=O)Nc1cccc(-c2nccc(NCc3ccccc3)n2)c1	6%	-21%	-5%
O=C1CS[C@@H](c2ccccc2Cl)c2cc(Cl)ccc2N1	-29%	-5.0%	12%
CN(C)c1ncc2nc(-c3ccccc3)c(=O)n(Cc3cccs3)c2n1	-26%	4.2%	-2%

Results in Cruzain inh Det and StopGo reporter (two entries from above):
SMILES | Cruzain inh Det | StopGo reporter
c1cc2c(cc1C1OC[C@@H]3C(c4ccc5c(c4)OCO5)OCC13)OCO2 (stereo partly drawn) | -1.5% | -10%
COC(=O)N1CCC[C@@]2(CCN(c3ccccn3)C2)C1 | -3.0% | 6%
